# HIV Env fusion = blocks HIV Env-driven cell-cell fusion | inhibition, % at 12.3 µM | HeLa-JRFL Env/CEM21 cell fusion, luciferase | AID 651610 | 360,000 compounds, 1.1% hits;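 active = mean replicate inhibition score of at least 50 and every replicate individually at or above 50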;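 note: 0% = plate neutral controls and 100% = maraviroc near 300 nM; one replicate is shown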
# Yeast UUG start = alters start codon recognition fidelity in yeast; S. cerevisiae UUG-firefly luciferase reporter, luminescence/redox ratio; activity score, % at 18.7 µM; 350,000 compounds, 0.13% hits; AID 602363;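 active = replicate mean at a twofold rise or more, about +100% in these data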;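 note: firefly luciferase made from a UUG start codon reports start codon fidelity; reporter light over untreated wells divided by growth signal over untreated wells; some hits fall short of that in this replicate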
# Numbers without * were called inactive; [ ] = remark or other dose. This is a subset, so the mix of outcomes need not match the whole.
HIV Env fusion	Yeast UUG start	canonical_smiles
0.2[16.7 µM]	126.9*	COc1ccccc1S(=O)(=O)N[C@H]1CC[C@@H](CCNC(=O)C2CCCC2)O[C@@H]1CO
6.4[16.7 µM]	10.2	Cc1noc(C)c1S(=O)(=O)Nc1cccc2c1O[C@H](CN(C)CC1CC1)[C@H](C)CN([C@@H](C)CO)C2=O
12.6[16.7 µM]	3.2	O=C(N[C@@H]1CC[C@@H](CCn2cc(C3(O)CCCC3)nn2)O[C@@H]1CO)C1CCCCC1
-9.8[16.7 µM]	-2.8	Cc1ccc(-c2cnc3c(c2)C(=O)N([C@@H](C)CO)C[C@H](C)[C@@H](CN(C)Cc2ccccc2F)O3)cc1
12.5[16.7 µM]	4.6	C[C@H](CO)N1C[C@H](C)[C@@H](CN(C)Cc2ccc(Oc3ccccc3)cc2)Oc2c(cccc2N(C)C)C1=O
-18.4[16.7 µM]	2.5	C[C@H]1CN([C@@H](C)CO)C(=O)c2cc(NC(=O)C3CCCCC3)ccc2O[C@@H]1CN(C)S(=O)(=O)c1cn(C)cn1
-0.4[16.7 µM]	0.5	Cc1ccc(S(=O)(=O)Nc2ccc3c(c2)C(=O)N([C@@H](C)CO)C[C@@H](C)[C@H](CN(C)C(=O)c2ccncc2)OCCCC[C@@H](C)O3)cc1
16.0[16.7 µM]	28.3	C[C@H](CO)N1C[C@H](C)[C@H](CN(C)Cc2ccc(C(=O)O)cc2)Oc2ccc(NS(=O)(=O)c3ccccc3)cc2C1=O
-7.5[16.7 µM]	-15.0	C[C@@H]1CN([C@@H](C)CO)S(=O)(=O)c2ccc(-c3ccccc3)cc2O[C@@H]1CN(C)Cc1cncnc1
-35.4[16.7 µM]	6.9	C[C@@H]1CCCCO[C@@H](CN(C)S(=O)(=O)c2ccc(F)cc2)[C@H](C)CN([C@H](C)CO)C(=O)c2cc(NS(=O)(=O)c3cn(C)cn3)ccc2O1
-2.8[16.7 µM]	8.4	CCCC(=O)Nc1ccc2c(c1)C(=O)N(C)[C@@H]1CC[C@H](CC(=O)Nc3ccccc3)O[C@@H]1CO2
2.7[16.7 µM]	12.2	C[C@H](CO)N1C[C@H](C)[C@@H](CN(C)S(=O)(=O)c2cccc(F)c2)Oc2ncc(C#CC3CC3)cc2C1=O
12.9[16.7 µM]	-5.3	Cc1ccc(S(=O)(=O)Nc2ccc3c(c2)C(=O)N([C@@H](C)CO)C[C@@H](C)[C@H](CN(C)S(=O)(=O)c2cn(C)cn2)O3)cc1
10.5[16.7 µM]	-26.6	CCCc1cn(CC[C@H]2CC[C@H](NC(=O)C3CCCCC3)[C@H](CO)O2)nn1
-13.4[16.7 µM]	15.7	COc1cccc(-c2cnc3c(c2)C(=O)N([C@H](C)CO)C[C@@H](C)[C@@H](CN(C)C(=O)Nc2c(C)noc2C)O3)c1
1.8[16.7 µM]	-2.6	CC(C)NC(=O)Nc1ccc2c(c1)C(=O)N(C)[C@H]1CC[C@H](CC(=O)NCC(F)(F)F)O[C@H]1CO2
-29.9[16.7 µM]	8.9	CO[C@@H]1CN(C)C(=O)c2ccc(NC(=O)Nc3ccccc3F)cc2OC[C@H](C)NC[C@H]1C
40.9[16.7 µM]	7.4	C[C@@H]1CN([C@H](C)CO)C(=O)c2cc(NC(=O)Nc3ccc(C(F)(F)F)cc3)ccc2O[C@@H](C)CCCCO[C@@H]1CN(C)Cc1ccc2c(c1)OCO2
-6.8[16.7 µM]	-14.8	C[C@H](CO)N1C[C@H](C)[C@@H](CN(C)Cc2ccccn2)Oc2ncc(C#Cc3cccc(F)c3)cc2C1=O
-3.5[16.7 µM]	-2.9	CCC(=O)N(C)C[C@@H]1Oc2cc(-c3cncnc3)ccc2S(=O)(=O)N([C@@H](C)CO)C[C@H]1C

# One compound at a time, as listed above. Order of screens: HIV Env fusion	Yeast UUG start
# Entry for `CCCC(=O)Nc1ccc2c(c1)C(=O)N(C)[C@@H]1CC[C@H](CC(=O)Nc3ccccc3)O[C@@H]1CO2` → -2.8[16.7 µM]	8.4
# Entry for `Cc1ccc(S(=O)(=O)Nc2ccc3c(c2)C(=O)N([C@@H](C)CO)C[C@@H](C)[C@H](CN(C)S(=O)(=O)c2cn(C)cn2)O3)cc1` → 12.9[16.7 µM]	-5.3

# (list continues)
HIV Env fusion	Yeast UUG start	canonical_smiles
-6.7[16.7 µM]	2.6	C[C@H]1CN([C@@H](C)CO)S(=O)(=O)c2ccc(C#CC3CC3)cc2O[C@@H]1CN(C)C(=O)c1ccccn1
0.6[16.7 µM]	-8.0	O=C(C[C@H]1C=C[C@@H](NC(=O)C2CCC2)[C@@H](CO)O1)NC1CCC1
-1.2[16.7 µM]	-10.5	CCCN(C)C[C@H]1OCCCC[C@H](C)Oc2ccc(NS(=O)(=O)c3cccs3)cc2C(=O)N([C@H](C)CO)C[C@H]1C
-6.0[16.7 µM]	-8.6	C[C@H]1CN([C@@H](C)CO)C(=O)c2cc(NS(C)(=O)=O)ccc2O[C@@H]1CN(C)Cc1ccccc1
-4.9[16.7 µM]	-4.2	C[C@@H]1CN([C@H](C)CO)C(=O)c2cccc(NC(=O)Nc3ccc(C(F)(F)F)cc3)c2O[C@@H]1CN(C)Cc1ccc(C(=O)O)cc1
-1.5[16.7 µM]	6.7	CCCNC(=O)N(C)C[C@@H]1Oc2ncc(C#CCC(C)C)cc2C(=O)N([C@H](C)CO)C[C@H]1C
-4.8[16.7 µM]	-22.0	NCC[C@H]1CC[C@@H](NC(=O)CCN2CCCCC2)[C@H](CO)O1
-5.8[16.7 µM]	7.7	C[C@H](CO)N1C[C@H](C)[C@H](CN(C)CC2CC2)Oc2ccc(NC(=O)CCCCCC(=O)Nc3ccccc3N)cc2C1=O
-9.2[16.7 µM]	-16.8	O=C1N(CCS(=O)(=O)c2ccccc2)c2ccccc2[C@@H]2OC(c3ccc(OCCCO)cc3)=N[C@]12CCS(=O)(=O)c1ccccc1
8.9[16.7 µM]	-4.4	N#C[C@@H]1[C@@H](c2ccc(-c3cccnc3)cc2)[C@H](CO)N1C(=O)C1CC1
6.7[16.7 µM]	9.1	C[C@@H]1CN([C@@H](C)CO)C(=O)Cc2cc(NS(=O)(=O)c3ccc(F)cc3)ccc2O[C@@H]1CN(C)Cc1ccc(C(F)(F)F)cc1
13.9[16.7 µM]	2.0	C[C@@H]1CCCCO[C@H](CN(C)S(C)(=O)=O)[C@@H](C)CN([C@@H](C)CO)C(=O)c2cc(NC(=O)Nc3ccc(C(F)(F)F)cc3)ccc2O1
36.3[16.7 µM]	-9.3	COc1ccc(NC(=O)Nc2ccc3c(c2)CC(=O)N([C@H](C)CO)C[C@H](C)[C@H](CN(C)Cc2ccc(Cl)c(Cl)c2)O3)cc1
13.0[16.7 µM]	7.8	CC(C)CC#Cc1ccc2c(c1)O[C@@H](CN(C)C(=O)CN(C)C)[C@@H](C)CN([C@H](C)CO)S2(=O)=O
85.2*[16.7 µM]	-28.8	C[C@@H]1CN([C@@H](C)CO)C(=O)c2cccc(NC(=O)Nc3ccc(C(F)(F)F)cc3)c2O[C@H]1CN(C)Cc1ccc(Cl)c(Cl)c1
-1.3[16.7 µM]	-7.9	O=C(C[C@H]1CC[C@H](NC(=O)NC2CCCC2)[C@H](CO)O1)NCc1ccc(F)cc1
-0.2[16.7 µM]	-8.1	Cc1ccc(S(=O)(=O)N(C)C[C@H]2Oc3ccc(NS(C)(=O)=O)cc3C(=O)N([C@H](C)CO)C[C@@H]2C)cc1
94.8*[16.7 µM]	11.9	O=C(C[C@H]1C[C@@H]2c3cc(NC(=O)Nc4ccc(F)cc4)ccc3O[C@@H]2[C@@H](CO)O1)NCC1CC1
-10.5[16.7 µM]	-1.1	C[C@@H]1CN([C@H](C)CO)C(=O)c2cc(NS(=O)(=O)c3ccc(Cl)cc3)ccc2O[C@@H]1CN(C)CC1CCCCC1
-2.4[16.7 µM]	2.3	C[C@H]1CN([C@@H](C)CO)C(=O)CCCn2nncc2CO[C@H]1CN(C)Cc1ccc2c(c1)OCO2
-39.9[16.7 µM]	17.3	CCNC(=O)C[C@H]1C=C[C@@H](NC(=O)C2CCC2)[C@@H](CO)O1
19.7[16.7 µM]	-13.0	CNC[C@H]1OCCCC[C@@H](C)Oc2ccc(NS(C)(=O)=O)cc2C(=O)N([C@@H](C)CO)C[C@@H]1C
-29.2[16.7 µM]	-3.1	C[C@H]1CN([C@@H](C)CO)S(=O)(=O)c2ccc(C#CC3(O)CCCC3)cc2O[C@@H]1CN(C)C(=O)Cc1ccccc1
-14.0[16.7 µM]	-14.1	CO[C@H]1CN(C)C(=O)c2cc(NC(=O)c3ccccc3F)ccc2OC[C@H](C)N(C)C[C@@H]1C
-8.0[16.7 µM]	-23.2	O=C(C[C@@H]1C[C@@H]2c3cc(NC(=O)c4cccnc4)ccc3O[C@@H]2[C@H](CO)O1)NCc1ccccn1
-153.0[16.7 µM]	16.9	CCCNC(=O)N(C)C[C@@H]1Oc2ncc(-c3ccccc3F)cc2C(=O)N([C@H](C)CO)C[C@H]1C
19.9[16.7 µM]	61.3*	CC(C)C#Cc1ccc2c(c1)O[C@@H](CN(C)C(=O)CN(C)C)[C@@H](C)CN([C@H](C)CO)S2(=O)=O
78.1*[16.7 µM]	-4.4	C[C@H](CO)N1C[C@H](C)[C@H](CN(C)C(=O)C2CCCCC2)OCCCC[C@H](C)Oc2ccc(NC(=O)Nc3ccc4c(c3)OCO4)cc2C1=O
-19.4[16.7 µM]	17.1	C[C@H](CO)N1C[C@H](C)[C@@H](CN(C)Cc2ccc(C(=O)Nc3ccccc3N)cc2)Oc2c(cccc2N(C)C)C1=O
2.2[16.7 µM]	-3.8	C[C@H]1CN([C@@H](C)CO)C(=O)c2cc(NC(=O)Nc3ccc4c(c3)OCO4)ccc2O[C@H]1CN(C)Cc1ccc(C(F)(F)F)cc1
-7.5[16.7 µM]	-9.4	Cc1ccc(-c2cnc3c(c2)C(=O)N([C@H](C)CO)C[C@@H](C)[C@H](CN(C)CC2CCOCC2)O3)cc1
-4.2[16.7 µM]	-10.3	O=C(Nc1ccc(Cl)cc1)N[C@@H]1CC[C@H](CCn2cc(C3(O)CCCC3)nn2)O[C@@H]1CO
0.5[16.7 µM]	9.4	COCC#Cc1cnc2c(c1)C(=O)N([C@@H](C)CO)C[C@@H](C)[C@H](CN(C)C(=O)Cc1ccncc1)O2
6.7[16.7 µM]	8.0	CCCC#Cc1ccc([C@@H]2[C@@H](CO)N(C(=O)C3CC3)[C@H]2C#N)cc1
15.7[16.7 µM]	5.0	CC(C)CC#Cc1ccc2c(c1)O[C@@H](CN(C)Cc1ccc3c(c1)OCO3)[C@@H](C)CN([C@H](C)CO)S2(=O)=O
8.1[16.7 µM]	-20.1	C[C@H](CO)N1C[C@H](C)[C@H](CN(C)C(=O)Nc2ccc(C(F)(F)F)cc2)Oc2ccc(NS(=O)(=O)c3cccs3)cc2CC1=O
0.1[16.7 µM]	-10.7	COc1ccc(CNC(=O)C[C@@H]2CC[C@@H](NC(=O)CN(C)C)[C@H](CO)O2)cc1
6.7[16.7 µM]	-2.4	Cc1ccc(S(=O)(=O)N(C)C[C@@H]2Oc3c(NC(=O)c4cnccn4)cccc3C(=O)N([C@H](C)CO)C[C@@H]2C)cc1
-23.5[16.7 µM]	13.7	COc1ccc([Si](C)(C)[C@@H]2[C@@H](CCn3cc(CCO)nn3)O[C@]3(C(=O)N(Cc4cccc(N5CCOC5=O)c4)c4ccccc43)[C@H]2C)cc1
-1.5[16.7 µM]	-10.0	C[C@H]1CCCCO[C@@H](CN(C)C(=O)c2ccncc2)[C@@H](C)CN([C@@H](C)CO)C(=O)c2cc(NS(=O)(=O)c3cn(C)cn3)ccc2O1

# The list goes on (5 carried over from the part before).
HIV Env fusion	Yeast UUG start	canonical_smiles
8.1[16.7 µM]	-20.1	C[C@H](CO)N1C[C@H](C)[C@H](CN(C)C(=O)Nc2ccc(C(F)(F)F)cc2)Oc2ccc(NS(=O)(=O)c3cccs3)cc2CC1=O
0.1[16.7 µM]	-10.7	COc1ccc(CNC(=O)C[C@@H]2CC[C@@H](NC(=O)CN(C)C)[C@H](CO)O2)cc1
6.7[16.7 µM]	-2.4	Cc1ccc(S(=O)(=O)N(C)C[C@@H]2Oc3c(NC(=O)c4cnccn4)cccc3C(=O)N([C@H](C)CO)C[C@@H]2C)cc1
-23.5[16.7 µM]	13.7	COc1ccc([Si](C)(C)[C@@H]2[C@@H](CCn3cc(CCO)nn3)O[C@]3(C(=O)N(Cc4cccc(N5CCOC5=O)c4)c4ccccc43)[C@H]2C)cc1
-1.5[16.7 µM]	-10.0	C[C@H]1CCCCO[C@@H](CN(C)C(=O)c2ccncc2)[C@@H](C)CN([C@@H](C)CO)C(=O)c2cc(NS(=O)(=O)c3cn(C)cn3)ccc2O1
10.1[16.7 µM]	1.7	CNC(=O)C[C@H]1CC[C@@H]2[C@H](COc3ccc(NC(=O)Nc4c(C)noc4C)cc3C(=O)N2C)O1
-3.7[16.7 µM]	15.7	O=C(C[C@H]1CC[C@H]2[C@@H](COC[C@H](O)CN2Cc2cocn2)O1)NCc1cccc(F)c1
-3.5[16.7 µM]	-12.4	COc1ccc(CNC(=O)C[C@@H]2C=C[C@H](NC(=O)CN(C)C)[C@H](CO)O2)cc1
8.5[16.7 µM]	6.6	COc1ccc(NC(=O)N(C)C[C@@H]2OCCCC[C@H](C)Oc3ccc(NS(C)(=O)=O)cc3C(=O)N([C@H](C)CO)C[C@@H]2C)cc1
-8.1[16.7 µM]	6.8	CCCC#Cc1ccc([C@H]2[C@H](C#N)N(C(=O)C3CCC3)[C@H]2CO)cc1
4.9[16.7 µM]	16.4	O=C(C[C@@H]1CC[C@H](NC(=O)c2ccc3c(c2)OCO3)[C@H](CO)O1)NCc1ccc(Cl)cc1
0.3[16.7 µM]	-15.9	Cc1ccc(CN(C)C[C@@H]2OCc3cnnn3CCCC(=O)N([C@H](C)CO)C[C@@H]2C)cc1
-14.5[16.7 µM]	30.5	CC(C)NC(=O)NCC[C@@H]1CC[C@@H](NS(=O)(=O)c2ccc(-c3ccccc3)cc2)[C@H](CO)O1
-15.9[16.7 µM]	30.4	CCCNC(=O)N(C)C[C@H]1Oc2ncc(/C=C/c3ccccc3)cc2C(=O)N([C@@H](C)CO)C[C@H]1C

# From PubChem BioAssay
